Assay outcomes (PubChem BioAssay)
Methyltransferases: Primary Screen for Target Class Profiling of Small Molecule Inhibitors of Methyltransferases; calls only at 40 µM; AID 1745853, 2022; hit rate 3.9% among 25,000; purified enzyme, MTase-Glo SAH luminescence; hits give low values; active = -50% or lower on at least one of six enzymes; inconclusive = the cases between; inactive = as a rule above -30% on all six;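 further: enzymes were COMT GAMT GNMT HNMT NNMT and PNMT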
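Each enzyme was assayed with SAM and its substrate. SAH formation detected by MTase-Glo luminescence; single-point 40 uM screen[…].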
Calls only; i = inactive; ? = inconclusive; + = active, no number. On the % scale 0 is the no-effect control and ±100 the full control effect. An excerpt, so the mix of outcomes need not match the whole.

SMILES | Methyltransferases
COc1ccc(CC(=O)N2C[C@@H](C(=O)O)[C@H](c3ccccc3)C2)c(OC)c1 | i
COc1ccc(CNC(=O)O[C@H]2COCCN(c3nc4ccccc4o3)C2)cc1 | i
CCCn1cnc2c1CN(C(=O)c1ccc(F)cc1)[C@H](C(=O)OC)C2 | i
CC(C)OCCCNC(=O)C1(C)Cn2c(cc3ccccc32)C(=O)N1Cc1ccccc1 (centres undefined) | i
Cc1ccc(N2C(=O)c3cc(C(C)(C)C)nn3CC2(C)C(=O)NC2CCCCC2)cc1 (centres undefined) | i
CC(=O)Nc1c2n(c3ccc(F)cc13)CC(C)(C(=O)NC1CCCC1)N(C1CCCC1)C2=O (centres undefined) | i
CCC(=O)N(C1CCOCC1)C1CCN(Cc2ccc(SC)cc2)CC1 | i
C=C(C)n1c(=O)n(Cc2ccc(C)cc2)c2ccccc21 | i
Cc1noc(C)c1Cc1ccc(C(=O)N2CCCCCCNC(=O)[C@@H]3CCCC[C@@H]32)o1 | i
CC(C)CCNC(=O)c1ccc2c(=O)nc3c(-c4ccc(F)cc4)n[nH]n3c2c1 | i
CC(=O)OCC(=O)O[C@@H]1[C@H]2[C@@H](OC(=O)c3ccccc3)[C@@H](C)C[C@]2(O)[C@H](OC(C)=O)C2(C)[C@H]3CC(C)(C)C(=O)[C@@H]3CC1(OC(C)=O)[C@@H]2OC(C)=O (some centres undefined) | i
c1ccc(OCc2noc(-c3ccc(NC4CCSC4)nc3)n2)cc1 (centres undefined) | i
Cc1cccc(CNC(=O)Cn2ccc3cc(S(=O)(=O)N4CCCCC4)ccc32)c1 | i
CC1(C(=O)NCc2ccccc2)Cn2c(nc3ccccc32)C(=O)N1C1CC1 (centres undefined) | i
CCCNC(=O)c1c(-c2ccccc2)cc(=O)n2c1CCC2 | i
CCCN1C(=O)c2c(C(=O)NCCc3ccc(Cl)cc3)ncn2CC1(C)C(=O)NCCC(C)C (centres undefined) | i
COc1ccc(CNC(=O)C2CCN(Cc3ccccc3-c3ccccc3F)CC2)cc1 | i
CC1CCC(NC(=O)C2(C)Cn3c(cc4occc43)C(=O)N2Cc2cccc(F)c2)CC1 (centres undefined) | i
Cc1ccccc1CN1C(=O)c2ccc(-c3ccccc3)n2CC1(C)C(=O)NC1CCCCCCC1 (centres undefined) | i
CC(C)NC(=O)Cn1ccc2cc(S(=O)(=O)N3CCCCC3)ccc21 | i
O[C@@H]1CN(CC2CC2)CC[C@H]1N1CCN(c2ccccc2F)CC1 | i
O=S(=O)(NCCn1c(CCc2ccccc2)nc2ccccc21)c1ccc2c(c1)CCCC2 | i
Cc1cc2nn(CC(=O)Nc3cccc(Cl)c3)c(=O)n2c(Nc2ccc(F)cc2)n1 | i
Cc1nn(-c2ccccc2)c2c1C(C1CC1)N(C1CN(C(=O)Nc3ccccc3)C1)C2=O (centres undefined) | i
Nc1cccc(-c2cc3c(Oc4cccc(O)c4)ncnc3[nH]2)c1 | +
CC(C)C1NC(=O)CNC(=O)C2CCCN2C(=O)C(Cc2c[nH]c3ccccc23)NC(=O)CNC(=O)C(Cc2ccc(O)cc2)NC(=O)CNC1=O (centres undefined) | i
Cc1ccc(Cn2c(=O)c3ccccc3n3c(=O)n(CC(=O)Nc4cc(F)ccc4F)nc23)cc1 | i
O=[N+]([O-])c1cccc2[nH]c(CNc3nc(N4CCOCC4)nc4c3ncn4-c3ccsc3)nc12 | i
CC(=O)OC(C)(C)/C=C/C(=O)[C@](C)(O)C1[C@H](O)C[C@@]2(C)[C@@H]3CC=C4[C@@H](C[C@H](O[C@@H]5O[C@H](CO)[C@@H](O)[C@H](O)[C@H]5O)C(=O)C4(C)C)[C@]3(C)C(=O)C[C@]12C (some centres undefined) | i
Cc1cc2c(cc3n2CC(C)(C(=O)NC2CCCCCCC2)N(CCN2CCCC2)C3=O)o1 (centres undefined) | i
O=C([C@@H]1CNC[C@H](C(=O)N2CCN(c3nccs3)CC2)C1)N1CCCC1 | i
COc1ccccc1CN1C(=O)c2cc3oc(C)cc3n2CC1(C)C(=O)NC1CCCCCC1 (centres undefined) | i
O=C(CCc1nnc2n(Cc3ccccc3)c(=O)c3ccccc3n12)NCc1ccccc1 | i
Cc1ccc(C)c(N2C(=O)c3cc4occc4n3CC2(C)C(=O)NC2CCC(C)CC2)c1 (centres undefined) | i
CCC1c2ccc(C)n2CCN1C(=O)Nc1ccccc1Cl (centres undefined) | i
O=C(c1cccs1)N1CCC(N(C(=O)NCCc2ccccc2)C2CCOCC2)CC1 | i
Cc1ccc(NC(=O)N2CCc3c(c4ccccc4n3CC3CC3)C2)cc1 | +
NC(C(=O)N[C@@H]1C(=O)N2C(C(=O)O)=C(Cl)CS[C@H]12)c1ccccc1 (some centres undefined) | i
COc1ccc(C(=O)Cn2nc3n(C(C)C)c(=O)c4ccc(C(=O)NC5CCCC5)cc4n3c2=O)cc1 | i
O=C(CCCCCCNC(=O)c1cnc(N(c2ccccc2)c2ccccc2)nc1)NO | ?
CNCCNS(=O)(=O)c1cccc2cnccc12 | i
C=Cc1ccc(Cn2nc3n(CC(C)C)c(=O)c4ccc(C(=O)NC5CCCCC5)cc4n3c2=O)cc1 | i
CN1CCC(N2CC[C@H](c3nc4ccccc4[nH]3)C2)CC1 | +
C=Cc1ccc(Cn2nc3n(Cc4ccc(F)cc4)c(=O)c4ccccc4n3c2=O)cc1 | i
Cn1c(=O)c2ccc(C(=O)NC3CCCC3)cc2n2c(SCC(=O)c3ccccc3)nnc12 | i

Gathered by group, those above containing sulfur.
SMILES | Methyltransferases
CCC(=O)N(C1CCOCC1)C1CCN(Cc2ccc(SC)cc2)CC1 | i
c1ccc(OCc2noc(-c3ccc(NC4CCSC4)nc3)n2)cc1 (centres undefined) | i
Cc1cccc(CNC(=O)Cn2ccc3cc(S(=O)(=O)N4CCCCC4)ccc32)c1 | i
CC(C)NC(=O)Cn1ccc2cc(S(=O)(=O)N3CCCCC3)ccc21 | i
O=S(=O)(NCCn1c(CCc2ccccc2)nc2ccccc21)c1ccc2c(c1)CCCC2 | i
O=[N+]([O-])c1cccc2[nH]c(CNc3nc(N4CCOCC4)nc4c3ncn4-c3ccsc3)nc12 | i
O=C([C@@H]1CNC[C@H](C(=O)N2CCN(c3nccs3)CC2)C1)N1CCCC1 | i
O=C(c1cccs1)N1CCC(N(C(=O)NCCc2ccccc2)C2CCOCC2)CC1 | i
NC(C(=O)N[C@@H]1C(=O)N2C(C(=O)O)=C(Cl)CS[C@H]12)c1ccccc1 (some centres undefined) | i
CNCCNS(=O)(=O)c1cccc2cnccc12 | i
Cn1c(=O)c2ccc(C(=O)NC3CCCC3)cc2n2c(SCC(=O)c3ccccc3)nnc12 | i

(continued)
SMILES | Methyltransferases
CCC(C)NC(=O)Cn1nc2nc(Nc3ccc(F)cc3)ccn2c1=O (centres undefined) | i
O=C(NCc1ccc2c(c1)OCO2)c1ccc2c(=O)nc3c(-c4ccccc4)n[nH]n3c2c1 | i
CC1(C(=O)NC2CCCCCC2)Cn2c(nc3ccccc32)C(=O)N1Cc1cccs1 (centres undefined) | i
COc1ccc(-c2cnc3ccc(NCc4ccc(S(N)(=O)=O)cc4)nn23)cc1OC | +
CO[C@H]1/C=C/C=C/C=C/C[C@H](OC(=O)[C@@H](C)NC(=O)C2CCCCC2)[C@H](C)[C@@H](O)/C(C)=C/CCc2cc(O)cc(c2)NC(=O)C1 | i
COc1cccc(C(=O)Cn2nc3n(C)c(=O)c4ccc(C(=O)NC5CCCCC5)cc4n3c2=O)c1 | i
O=C(/C=C/c1ccc2ccccc2n1)c1ccncc1 | ?
CC1(C(=O)NC2CCCC2)Cn2c(nc3ccccc32)C(=O)N1Cc1ccc2c(c1)OCO2 (centres undefined) | i
CCCn1c(=O)c2ccccc2n2c(SCc3ccc(F)cc3Cl)nnc12 | i
CC(C)C[C@H](CO)Nc1nc(S[C@@H](C)c2ccccc2)nc2nc(N)sc12 | +
COc1ccc(C2(O)c3ccccc3NC(=O)C2O)cc1 (centres undefined) | i
COc1ccc2cc3n(c2c1)CC(C)(C(=O)NC1CCCC1)N(c1ccc(Cl)cc1)C3=O (centres undefined) | i
CCCn1c(=O)c2ccc(C(=O)NC(C)C)cc2n2c(SCc3ccccc3)nnc12 | i
Cc1cccc(Cn2nc3n(CCC(C)C)c(=O)c4ccc(C(=O)NC(C)C)cc4n3c2=O)c1 | i
CCCn1c(=O)c2cc(F)ccc2n2c(SCC(=O)Nc3cc(F)ccc3F)nnc12 | i
Cc1noc(C)c1[S+](=O)([O-])N1CCCC1C(=O)N1CCC(N2CCCC2=O)CC1 (centres undefined) | i
COCCCNC(=O)C1(C)Cn2nc(-c3ccccc3)cc2C(=O)N1c1ccc2c(c1)OCO2 (centres undefined) | i
CC1CC(=O)[C@]2(O)C(C(=O)OCCc3ccc(O)c(O)c3)=CO[C@@H](O[C@@H]3O[C@H](CO)[C@@H](O)[C@H](O)[C@H]3O)[C@H]12 (some centres undefined) | i
CCCn1c(C)cnc1CC1CCN(C(=O)NCc2ccc(OC)cc2)C1 (centres undefined) | +
Cc1ccc(Cn2c(=O)c3ccccc3n3c(CCC(=O)N4CCC(Cc5ccccc5)CC4)nnc23)cc1 | i
CN1CC(=O)N(CC(=O)N[C@@H]2COCC[C@@H]2OCc2cscn2)C1=O | i
CC(=O)N1CCCN(Cc2nnc(C(=O)N3CCC[C@@H]3c3cccc(F)c3)n2-c2cccnc2)CC1 | i
CC(C)Cn1c(=O)c2ccc(C(=O)NC3CCCCC3)cc2n2c(=O)n(Cc3ccc(F)cc3)nc12 | i
COc1ccc(CNC(=O)C2(C)Cn3cnc(C(=O)NCc4cccc(OC)c4)c3C(=O)N2C2CC2)cc1 (centres undefined) | i
CC1=CC2=C(C)C(=O)C(C)(O)C(O)C2CO1 (centres undefined) | i
CCCn1c(=O)c2ccc(Cl)cc2n2c(=O)n(Cc3ccc(Cl)cc3)nc12 | i
CS(=O)(=O)N1C[C@@H](COc2ccccc2)[C@H](C(N)=O)C1 | i
CCOC(=O)c1cc2n(n1)CC(C)(C(=O)NCc1ccc(C)cc1)N(CCc1ccc(OCC)cc1)C2=O (centres undefined) | i
CN1C(=O)c2cc(C(=O)NCc3cccs3)nn2CC1(C)C(=O)NC1CCCC1 (centres undefined) | i
CN(C)C(=O)CO[C@H]1COCCN(Cc2ccccn2)C1 | i
Cc1cc(CN2CCC3(CC2)CN(C2CCC2)CC3CO)n(C)n1 (centres undefined) | i
O=C(CCc1nnc2n(Cc3ccccc3Cl)c(=O)c3ccccc3n12)NCc1ccc2c(c1)OCO2 | i
COc1coc(C(=O)NCCC2CN(c3cnn(C)c(=O)c3)CCO2)cc1=O (centres undefined) | i
CCCn1c(=O)c2ccc(C(=O)NC(C)C)cc2n2c(=O)n(CC(=O)Nc3cccc(Cl)c3)nc12 | i
CCOc1ccccc1CN1C(=O)c2ccc(-c3ccco3)n2CC1(C)C(=O)NC1CCCC1 (centres undefined) | i
CCn1ccc(C(=O)N2CCC3(CC2)CC(N(C(=O)c2ccccc2)C2CC2)CCO3)n1 (centres undefined) | i
CCCSCCCN1C(=O)c2cc3ccccc3n2CC1(C)C(=O)NC1CCCCCC1 (centres undefined) | i
COc1ccccc1CCN1C(=O)c2ccc(-c3ccco3)n2CC1(C)C(=O)NC1CCCCC1 (centres undefined) | i
COc1ccc(OC)c(CCNC(=O)CCc2nnc3n(CCc4ccccc4)c(=O)c4ccccc4n23)c1 | i
CC(NCc1cn(CCC(N)=O)c2ccccc12)c1ccccc1-n1cccn1 (centres undefined) | i
COC(=O)Nc1cc(-c2ccncc2)nn1C | i
C=CCOc1cccc(-c2nnc(CCC(=O)NCc3ccccc3)c(=O)[nH]2)c1 | i
CCCn1c(=O)c2ccc(C(=O)NC(C)CC)cc2n2c(=O)n(CC(=O)NC(C)(C)C)nc12 (centres undefined) | i
CON(C)C(=O)[C@H](O)[C@H](Cc1ccccc1)NC(=O)c1cc2cc(Cl)ccc2[nH]1 | i
C=CCn1c(=O)c2ccc(C(=O)NC(C)C)cc2n2c(=O)n(CC(=O)Nc3c(C)cccc3C)nc12 | i
CCN1C(=O)c2cc(C(=O)Nc3cc(C)cc(C)c3)nn2CC1(C)C(=O)NC1CCCC1 (centres undefined) | i
CCCn1c(=O)c2ccccc2n2c(SCC(=O)Nc3ccccc3CC)nnc12 | i
CN1C(=O)c2cc(C(=O)NCCc3ccc(Cl)cc3)nn2CC1(C)C(=O)NCc1ccccc1 (centres undefined) | i
COc1ccccc1CNC(=O)C1(C)Cn2cnc(C(=O)Nc3cccc(Cl)c3C)c2C(=O)N1C1CC1 (centres undefined) | i
OC1CCOC2(CCN(Cc3cccnc3)CC2)C1 (centres undefined) | i
CN(Cc1nc2ccc(F)cc2[nH]1)C(=O)c1cn(CCN)nn1 | i
CC1(C(=O)NC2CCCC2)Cn2c(ccc2-c2ccccc2)C(=O)N1CCc1ccc(Cl)cc1 (centres undefined) | i
O=C(NCCCCN1CCN(c2cccc(Cl)c2Cl)CC1)c1cc2ccccc2s1 | i
Cc1cc(NC(=O)Cn2c(=O)oc3cc(S(=O)(=O)N4CCCC4)ccc32)ccc1Br | i
Cn1c(=O)n([C@H]2CCCN(S(=O)(=O)c3ccc4c(c3)OCCO4)C2)c2ncccc21 | i
CC(C)OCCCn1c(=O)c2cc(Cl)ccc2n2c(SCc3ccc(F)cc3)nnc12 | i
CC(NC(=O)Cn1ccc2cc(S(=O)(=O)N3CCCCC3)ccc21)c1ccccc1 (centres undefined) | i
Cc1cccc(S(=O)(=O)N2CCCC(Cn3cc(CO)nn3)C2)c1 (centres undefined) | i
COCCCNC(=O)N1CCCC(c2[nH]ccc2C(N)=O)C1 (centres undefined) | i
CCCN1C(=O)c2c(C(=O)OC)ncn2CC1(C)C(=O)NCc1ccccc1 (centres undefined) | i
Cc1ccc(CCNC(=O)CCn2ccc3cc(S(=O)(=O)N4CCCCC4)ccc32)cc1 | i
